# Screening data as filed in PubChem.
# StopGo FLuc: Primary qHTS Assay for Foot and Mouth Disease Virus Antivirals against NCGC Sytravon and CBC Compound Libraries: Firefly Luciferase Signal. HEK cells with a luciferase reporter of 2A StopGo recoding. Potency, µM (titrated, usually from 57.5 µM), for the others: at the highest dose signal change, negative = less light. 120,000 compounds, 0.23% hits; active = well fitted falling curve with a large enough effect; inconclusive = small, poorly fitted or top-dose-only effect; inactive = no such curve, though single readings can be large or run the other way; further: nearly all actives have a fitted effect of over 60% in size; overnight with compound
# 2A Renilla: Primary qHTS Assay for Foot and Mouth Disease Virus Antivirals against NCGC Sytravon and CBC Compound Libraries: Renilla Luciferase Signal. 120,000 compounds, 0.32% hits. HEK cells with a luciferase reporter of 2A StopGo recoding. Potency, µM (series often up to 57.5 µM), without a hit: at the top dose signal change, negative = less light; active means well fitted falling curve with a large enough effect; inconclusive means small, poorly fitted or top-dose-only effect; inactive means no such curve, though single readings can be large or run the other way; further: nearly all actives have a fitted effect of over 55% in size; overnight with compound
# * = called active by the depositor; ? = inconclusive; [ ] = dose if it differs, or a comment. On the % scale 0 is the no-effect control and ±100 the full control effect; potency means the concentration at half of the fitted maximal effect. These rows are one share of the data, so the mix of outcomes need not match the whole.
# Sequence of screens: StopGo FLuc	2A Renilla
> Cc1cccc(NC(=O)CSc2nc3c([nH]c4ccccc43)c(=O)n2-c2cc(C)cc(C)c2)c1
 : -1%	-8%
> C=CCNC(=O)c1cc(-c2ccccn2)nc2ccccc12
 : 13%	0%
> Fc1cccc(F)c1CNCCN1CCCC1
 : 13%	11%
> Cc1cc(Cl)ccc1OCC(=O)Nc1ccc2oc(-c3ccncc3)nc2c1
 : 12%	1%
> Cc1cc(=O)oc2cc(OCC(=O)Nc3ccc(S(=O)(=O)N4CCOCC4)cc3)ccc12
 : -6%	-10%
> CCn1cc(C(=O)N2CCN(c3cccc(Cl)c3)CC2)c(=O)c2cc(S(=O)(=O)N3CCCCC3)ccc21
 : 23%	-15%
> COc1ccc(CCNC(=O)c2ccc3nc(Cc4ccccc4)oc3c2)cc1OC
 : ?	?
> O=C(OCc1nc2ccccc2o1)c1ccc(F)cc1F
 : 14%	0%
> CCn1cc(S(=O)(=O)c2ccccc2)c(=O)c2cc(C)ccc21
 : 8%	50%[activator]
> COc1ccccc1C(=O)Nc1cc(-c2cccc(Br)c2)nn1-c1ccccc1
 : -1%	-5%
> Cc1cnc(NC(=O)C23CC4CC(CC(C4)C2)C3)s1
 : 101%[activator]	10%
> C/C(=N/Nc1cccc([N+](=O)[O-])c1)c1ccc(Br)cc1
 : 85%[activator]	-4%
> Cn1c(SCC(=O)c2ccc3c(c2)OCCCO3)nnc1-c1ccc(F)cc1
 : 6%	-3%
> COc1cc(OC)c(NC(=O)Nc2ccccc2OCc2cc(=O)n3cc(C)ccc3n2)cc1Cl
 : 2%	-10%
> O=[N+]([O-])c1ccc(OCc2cc(Cl)c3c(c2)OCCO3)cc1
 : 115%[activator]	6%
> Cc1ccc(-c2n[nH]c(=O)c3ccccc23)cc1S(=O)(=O)N1CCOCC1
 : 31%[activator]	12%
> O=C(CSc1nc2ccccc2nc1Cc1ccccc1)NCc1ccccc1Cl
 : -17%	-11%
> CC(Nc1nc(-c2ccncc2)nc2ccccc12)c1ccc2c(c1)OCO2 (stereo unspecified)
 : -2%	6%
> Cc1ccc(S(=O)(=O)C2(C(=O)Nc3ccc(Cl)c(C(F)(F)F)c3)CC2)cc1
 : -18%	17%
> CC(NC(=O)c1cc2ccccc2oc1=O)C(=O)NCc1ccccc1 (stereo unspecified)
 : 7%	-12%
> COc1ccc(-c2nc(CSC(C)C(=O)Nc3cc(C)ccc3C)co2)cc1 (stereo unspecified)
 : ?	?
> CNC(=S)NC(C)C1CC2CCC1C2 (stereo unspecified)
 : 5%	11%
> NC(=O)c1ccccc1NC(=O)c1ccc(-c2ccc(Br)cc2)o1
 : 68%[activator]	0%
> COc1cccc(NC(=O)CN(C)C(=O)CNC(=O)c2ccc3c(c2)OCO3)c1
 : 13%	-5%
> CC(C)=CC(=O)CC1(C#N)C(N)=C(C=O)CC1(C#N)C#N (stereo unspecified)
 : 20%	11%
> CCc1nc(CN(C)C(C)c2ccc(S(N)(=O)=O)cc2)cs1 (stereo unspecified)
 : 7%	9%
> Cc1ccc(C(C)C)c(OCCSc2nc(-c3cccs3)nc3cc(=O)[nH]n23)c1
 : 0%	5%
> Cc1ccc(C(=O)NC(Nc2ccccc2Cl)C(=O)c2ccccc2)cc1 (stereo unspecified)
 : 12%	19%
> COc1cc(OC)cc(-c2nnc(Cc3c(F)cccc3Cl)o2)c1
 : 46%[activator]	47%[activator]
> O=C(O)c1ccc2oc3ccccc3c2c1
 : 0%	14%
> O=C(OC/C=C/c1ccccc1)C(c1ccccc1)c1ccccc1
 : -3%	3%
> COc1ccc(OC)c(S(=O)(=O)n2cc(C)nc2-c2ccccc2)c1
 : 1%	1%
> Cn1c(SCc2nc3ccccc3o2)nnc1-c1ccc(Cl)cc1
 : 73%[activator]	15%
> Cc1nc(NC(=O)Cc2c(C)nn(C)c2C)sc1-c1ccccc1
 : ?	?
> CSCc1ccc(C(=O)N2CCN(C(c3ccc(F)cc3)c3ccc(F)cc3)CC2)o1
 : 4%	3%
> Cc1cccc(N2CC(C(=O)Nc3cc(Cl)ccc3-n3cncn3)CC2=O)c1C (stereo unspecified)
 : 13%	6%
> N#CCOc1nc(-c2ccco2)c2c(c1C#N)CCC2
 : -19%	-11%
> COc1ccc(Oc2coc3cc(OCc4ccc(C)cc4)ccc3c2=O)cc1
 : 9%	1%
> Cc1oc(-c2ccccc2)nc1COc1cc(Cl)ccc1Cl
 : 0%	-4%[1.06 µM]
> CCOC(=O)CN(Cc1ccccc1)C(C(=O)NC1CCCCC1)c1ccc(C)cc1 (stereo unspecified)
 : -7%	-6%
> CCOC(=O)c1ccc(CN(Cc2ccc(F)cc2)S(=O)(=O)c2ccc(F)c(C(=O)Nc3ccc(Cl)cc3F)c2)cc1
 : -10%	5%
> Cc1ccc(C(=O)NNC(=O)c2cccc(N(C)C)c2)cc1F
 : 74%[activator]	3%
> CCCCN(C)c1ccc(C(=O)O)cc1NS(=O)(=O)c1ccc(Br)s1
 : -13%	1%
> Cc1nc2ccn(Cc3cccnc3)c(=O)c2cc1C(=O)N1CCN(c2ccccc2)CC1
 : -15%	-13%
> CCN(CC)c1ccc(C=Nc2ccc(S(N)(=O)=O)cc2)cc1
 : 1%	-1%
> N#Cc1ccc(NC(=O)CSc2ccc3c(c2)OCCCO3)cc1Cl
 : ?	-11%
> CC(NC(=O)c1ccc2c(c1)CCN2S(C)(=O)=O)c1ccccc1 (stereo unspecified)
 : -12%	-2%
> CCc1ccc(OCC2c3cc(OC)c(OC)cc3CCN2C(=O)COc2ccccc2)cc1 (stereo unspecified)
 : ?	-27%
> Cc1ccc(-n2nc3c(=O)n(CCCC(=O)NCCc4ccccc4Cl)nc(C)c3c2C)cc1
 : -8%	-6%
> CC1CCCN(C(=O)CSc2nnc(-c3ccccc3)o2)C1 (stereo unspecified)
 : 137%[activator]	7%
> Cc1ccc(Nc2nnc(-c3ccc(C)c(S(N)(=O)=O)c3)c3ccccc23)c(C)c1
 : -20%	109%[activator]
> C=CCNC(=O)c1ccc(C(=O)OC)cc1
 : 21%	-7%
> CCCNC(=O)c1ccc2c(c1)N(Cc1ccccc1)C(=O)CS2=O (stereo unspecified)
 : 7%	1%
> Cc1ccc(OCC(=O)N(Cc2ccco2)Cc2ccc(C)o2)cc1
 : -16%	27%
> O=C(Nc1cc(-c2ccc(Cl)cc2)no1)c1ccc(F)cc1
 : 9%	-4%
> Cc1ccc2c(CC(=O)N(Cc3ccc(F)cc3)C3CC3)coc2c1
 : 0%	5%[1.06 µM]
> COc1ccc(OC)c(C(=O)Oc2ccc(C#N)cc2)c1
 : 48%[activator]	10%
> COc1cccc(CNC(=O)c2ccc(CNS(=O)(=O)c3ccc(C)cc3)cc2)c1
 : ?	4%
> Cc1nc(C(F)(F)F)ccc1C(=O)O
 : 1%	-3%
> CCCCNc1nc(Oc2ccc(OCC)nn2)nc(N2CCOCC2)n1
 : 44%[activator]	46%[activator]

# Shown bar-delimited: 6 of the compounds above
Structure | StopGo FLuc | 2A Renilla
CC1CCCN(C(=O)CSc2nnc(-c3ccccc3)o2)C1 (stereo unspecified) | 137%[activator] | 7%
C=CCNC(=O)c1ccc(C(=O)OC)cc1 | 21% | -7%
Cc1ccc(-n2nc3c(=O)n(CCCC(=O)NCCc4ccccc4Cl)nc(C)c3c2C)cc1 | -8% | -6%
CCCNC(=O)c1ccc2c(c1)N(Cc1ccccc1)C(=O)CS2=O (stereo unspecified) | 7% | 1%
Cc1ccc(OCC(=O)N(Cc2ccco2)Cc2ccc(C)o2)cc1 | -16% | 27%
N#Cc1ccc(NC(=O)CSc2ccc3c(c2)OCCCO3)cc1Cl | ? | -11%

# Further entries.
# Sequence of screens: StopGo FLuc	2A Renilla
> O=C(CN1C(=O)COc2ccc(S(=O)(=O)N3CCCCC3)cc21)NCc1ccccc1Cl
 : -10%	-19%
> CCC1CCCCN1CCCNC(=O)CN1C(=O)CSc2ccc(S(=O)(=O)N3CCC(C)CC3)cc21 (stereo unspecified)
 : -30%	?
> Cc1ccc(-n2cc3c(c2-c2ccccc2Br)c(=O)n(C)c(=O)n3C)cc1N
 : -15%	-10%
> C[C@H](Nc1ncnc2sc3c(c12)CCC3)C(=O)O
 : -17%	-17%
> CC(CC(=O)Nc1cccc(O)c1)(C(=O)O)c1ccccc1 (stereo unspecified)
 : 15%	8%
> Cc1cc2c(cc1S(=O)(=O)NCc1ccc(F)cc1)OCCN2C
 : -16%	?
> CCNC(=O)C(C)NC(=O)CCNC(=O)N(C)Cc1ccccc1 (stereo unspecified)
 : -18%	2%
> O=C(Cn1c(=O)n(-c2ccc(F)c(Cl)c2)c(=O)c2sc3ccccc3c21)NC1CCCC1
 : -18%	-10%
> CCCNC(=O)NC(=O)CN(CC(C)C)C1CC1
 : -1%	5%
> O=C(Cn1ncc2ccccc2c1=O)Nc1ccc(OC2CCCC2)cc1
 : 35%[activator]	-2%
> COc1cc(C(=O)Nc2ccccc2OCc2cc(=O)n3cc(C)sc3n2)cc(OC)c1OC
 : ?	-19%
> COC(=O)c1ccc(Oc2coc3cc(OCc4ccccc4)ccc3c2=O)cc1
 : 5%	-7%
> CC(C(=O)Nc1ccccc1)N(C)Cc1ccc2ccccc2c1 (stereo unspecified)
 : 8%	1%
> CC(C)CCC(CCNCc1cccs1)C1CCOC(C)(C)C1 (stereo unspecified)
 : -18%	44%[activator]
> CCn1nc(C)c2ccn(CC(=O)NCc3ccccc3C(F)(F)F)c(=O)c21
 : 14%	19%
> Cc1ccccc1C(=O)N1CCC2(CC1)OCCN2S(=O)(=O)c1ccc(Cl)cc1
 : -2%	9%
> O=C(Cn1ccc2cc(Br)ccc21)NC1CC1
 : 17%	3%
> Cn1nnnc1SCCCNCc1ccc(Cl)cc1
 : 2%	-7%
> COc1ccc(C(=O)NCC(c2cccnc2)N2CCN(c3ccccc3OC)CC2)cc1 (stereo unspecified)
 : ?	?
> CCCn1c(=O)c2sccc2n2c(CCCC(=O)Nc3ccc(Oc4ccc(Cl)cc4)cc3)nnc12
 : 10%	-12%
> CN(C)N1C(=O)CC(c2cccc(Cl)c2Cl)C2=C1CC(C)(C)CC2=O (stereo unspecified)
 : -15%	0%
> Cc1ccc(NC(=O)C(Cc2ccccc2)N2Cc3ccccc3C2=O)cc1Cl (stereo unspecified)
 : -2%	69%[activator]
> COc1ccc(CCNC(=O)CCc2c(C)c3cc4c(C)c(C)oc4cc3oc2=O)cc1
 : 5%	6%
> N#Cc1ccccc1CNc1cc(Cl)ccc1Cl
 : 17%	18%
> COc1ccc(CC(=O)Nc2ccc3nc(N4CCCCC4)cc(C)c3c2)cc1
 : 8%	44%[activator]
> CC(=O)Nc1ccccc1OCC(=O)NC(C)C(C)C (stereo unspecified)
 : -4%	-3%
> Cc1cc(C(=O)OCC(=O)Nc2cc(S(=O)(=O)N(C)C)ccc2C)c2ccccc2n1
 : 0%	20%
> Cc1ccc(-c2cc3c(n2-c2ccc(C)cc2)CC(C)(C)CC3=O)cc1
 : 6%	-19%
> CCN(CC)c1ccc(Nc2nc(N3CCOCC3)c3ccccc3n2)cc1
 : ?	20µM*
> CN(C)c1ccc(NC(=O)c2ccc3nc[nH]c3c2)cc1
 : 182%[activator]	0%
> Cc1ccccc1OCC(=O)Nc1ccc2nc(SCC(=O)N3CCOCC3)sc2c1
 : -9%	35%[activator]
> COc1ccc(N2CC(NC(=O)C3CCCC3)CC2=O)cc1 (stereo unspecified)
 : -24%	-3%
> CCc1cccc(NC(=O)CN(C)C2=NS(=O)(=O)c3ccccc32)c1
 : 15%	40%[activator]
> Cc1cccc(NC(c2cccc(F)c2)c2ccc3ccc(C)nc3c2O)n1 (stereo unspecified)
 : -12%	-2%
> CC(C)NC(=O)c1ccc2c(Cl)c3c(nc2c1)CCCC3
 : 17%	4%
> COc1ccc(N2CCN(C(=O)c3cn(CC(C)C)c(=O)c4c3c3ccccc3n4C)CC2)cc1
 : ?	249%[activator]
> COc1ccc2nc(N(Cc3cccnc3)C(=O)c3ccco3)sc2c1
 : 64%[activator]	15%
> CCOC(=O)c1oc2ccccc2c1COC(=O)CNC(=O)c1cccc(OC)c1
 : 18%	-3%
> COc1ccc2c(c1)c(CC(=O)OC/C=C(\C)CC/C=C(\C)CCC=C(C)C)c(C)n2C(=O)c1ccc(Cl)cc1
 : 1%[11.5 µM]	6%
> Cc1cccc(C(=O)NC(NC(C)C)C(Cl)(Cl)Cl)c1 (stereo unspecified)
 : 3%	1%
> Cc1c(Cl)cccc1NC(=O)CN1C(=O)CSc2ccc(S(=O)(=O)N3CCCC3)cc21
 : -16%	13%
> COc1cccc(C(=O)N2CCN(C(=O)Cc3cc(OC)c(OC)c(OC)c3)CC2)c1
 : -7%	-6%
> CC(C)n1nc(C(=O)NCCc2cccs2)c2ccccc2c1=O
 : 26%	-9%
> COc1ccc2c(C)c(CCC(=O)Nc3ccc(C)cc3O)c(=O)oc2c1
 : 2%	-7%
> CC(=O)Nc1ccc(NC(=O)C(=O)c2c[nH]c3ccccc23)cc1
 : 71%[activator]	1%
> COC(=O)c1ccc(CNC(=O)CCCNC(=O)C(C)(C)C)cc1
 : 2%	-5%[1.06 µM]
> COc1ccc(-c2c(C)oc3cc(OC(C)C(=O)O)ccc3c2=O)cc1OC (stereo unspecified)
 : 0%	-9%
> Cc1ccc(-c2ocnc2C(=O)Nc2ccc(C)c(C)c2)s1
 : 37%[activator]	-2%
> CCc1ccc2[nH]c(C(C)(C)C)c(C=O)c2c1
 : 87%[activator]	?
> CC(Nc1ccc(F)cc1)C(=O)Nc1ccc(Cl)cn1 (stereo unspecified)
 : 5%	-11%
> COc1ccccc1N1CCN(C(=O)c2cc(C)on2)CC1
 : 15%	2%
> COc1ccc(Cl)cc1NC(=O)c1noc2c1CCc1ccccc1-2
 : -9%	-8%
